Calb biofilm kill: mixtures killing C. albicans biofilm; actives 0.02% (n = 120,000); inhibition, % at 7.6 µM; AID 1242; C. albicans biofilm persisters + clotrimazole, fluorescence viability; primary screen in compound mixtures of four per well;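 active = inhibition above 30.3% in the primary screen of four-compound pools, then above 30% when the compound was retested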;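 also: compounds exposed to preformed 24 h biofilms for 48 h; the number belongs to the whole pool; some results filed as inactive read as strong as hits; inactives centre near 12; 0% = biofilm with clotrimazole alone and 100% = kill control; retested singly at about 60 µM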
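Test system: C. albicans CAF4-2 wild-type biofilms; buffer or medium: RPMI/MOPS medium, pH 7.0; schedule: 24 h biofilm formation, then 48 h compound exposure, 37 °C; detection: Alamar Blue fluorescence; measure: percent inhibition of biofilm viability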
* hit, by the source's call. The list is partial. The share of hits here may be higher or lower than overall.

SMILES	Calb biofilm kill
O=S(=O)(c1ccc(NC(=S)NN=C(C2CC2)C2CC2)cc1)N1CCOCC1	8
N#Cc1c(NC(=O)C2CC(Cl)=CCC2C(=O)O)sc2c1CCCCC2 (stereo unspecified)	31
COc1cc(OC)cc(C(=O)NNC(=O)c2ccccc2Br)c1	5
COc1ccc(CCNc2ccc(N3C(=O)CC(C)C3=O)cc2[N+](=O)[O-])cc1 (stereo unspecified)	7
CCCCCCOc1ccc(N2C(=O)CC(N(CCc3ccc(S(N)(=O)=O)cc3)C(C)=O)C2=O)cc1 (stereo unspecified)	14
Nc1cc(Cl)nc(N/N=C/c2ccc([N+](=O)[O-])cc2)n1	16
CCc1ccc(NC(=S)N(CCCN2CCN(C)CC2)Cc2cccs2)cc1	16
O=C(Nc1cccc(S(=O)(=O)NC2=NCCCCC2)c1)c1cc(-c2ccccc2)nc2ccccc12	21
COc1ccc(-c2nnc(SCC(=O)NNC(=O)c3ccc(C)cc3)o2)cc1	6
Cc1cc(NC(=O)c2ccc(N3C(=O)C4C5C=CC(C5)C4C3=O)cc2)no1 (stereo unspecified)	23
CC(C)(C)NC(=O)CON=C1c2ccccc2-c2ccccc21	11
O=C(Nc1cc2c(=O)n(-c3ccc(Oc4ccccc4)cc3)ccc2oc1=O)c1ccccc1	11
CCOC(=O)c1nn(-c2ccc3ccccc3c2)cc1O	-2
CC(=O)Nc1ccc(Nc2ncnc(N)c2[N+](=O)[O-])cc1	4
CN(C)CCC1Sc2ccccc2Oc2ccccc21 (stereo unspecified)	17
CCOC(=O)N1CCC(N(CCN(C)C)C(=S)Nc2ccc(Oc3ccccc3)cc2)CC1	20
Cc1cccc(CCNC(=O)COc2cc(=O)n(C)c3ccccc23)c1	20
CCN(C(=O)Cn1cc(C(C)=O)c2ccccc21)c1ccccc1	2
C/C(=N\NC(=O)c1ccc(NS(=O)(=O)c2cccs2)cc1)c1ccccn1	8
CCOC(=O)C1CCN(c2c(NCc3ccc(N(C)C)cc3)c(=O)c2=O)CC1	27
Cc1ccc(C(C)C)c(OC/C(O)=C(\C#N)c2nc3ccccc3[nH]2)c1	24
COCCCN1C(=O)c2ccc(C(=O)OCC(=O)N(C)c3ccccc3)cc2C1=O	5
CN(C)S(=O)(=O)N(CC(=O)N1CCN(Cc2ccccc2)CC1)c1ccccc1	25
CCN(CCn1cccn1)C(=O)CCc1nnc(C2CCCCC2)o1	24
CCOc1ccc(NC(=O)CN2C(=O)CSC(C)C2=O)cc1 (stereo unspecified)	29
(more compounds)
SMILES	Calb biofilm kill
Cc1ccccc1Cn1cnc2ccccc2c1=O	0
CCC(=O)N(CC)Cc1cc(=O)[nH]c2ccccc12	7
CCN1CCN(C(c2ccc(OC)cc2)c2nnnn2Cc2ccc3c(c2)OCO3)CC1 (stereo unspecified)	16
Cc1cccc(N(C(=O)CCC(=O)Nc2cccnc2)C(C(=O)NC2CCCC2)c2ccncc2)c1 (stereo unspecified)	6
CN(c1ccccc1)S(=O)(=O)c1cccc(NC(=O)CSc2ncn[nH]2)c1	9
O=C(Nc1ccc(N2CCOCC2)c(S(=O)(=O)Nc2cc(Cl)ccc2Cl)c1)c1cccnc1	9
COc1ccc2c(c1)-c1nc(/N=C/c3ccc(O)cc3)sc1CC2	12
COC(=O)c1c(C)oc(C)c1S(=O)(=O)NCc1ccc(OC)cc1	22
CCOc1ccc(NC(=S)N(CCCN2CCCC2)Cc2cccn2Cc2ccc(Cl)cc2)cc1	25
Fc1ccc2[nH]c3c(Cl)ncnc3c2c1	22
O=C(COC(=O)CCc1nc2ccccc2s1)Nc1nc(-c2ccccc2)cs1	9
COCCSc1nnc(NC(=O)c2cc(OC)c(OC)cc2[N+](=O)[O-])s1	8
CC(c1ccccc1)n1c(-c2cccs2)nc2c(c(=O)c3ccccc3n2C)c1=O (stereo unspecified)	17
COC(=O)[C@@]1(Cc2ccc(F)cc2)[C@H]2c3cc(C(=O)N(C)C)n(CCc4ccccn4)c3C[C@H]2CN1C(=O)c1ccccc1	15
C/C(=N/NC(=O)c1cnccn1)c1ccncc1	13
Cc1ccc2cc(CCNC(=O)c3ccc(C)c([N+](=O)[O-])c3)c(=O)[nH]c2c1	7
Cc1ccc(N)cc1S(=O)(=O)N(C)C	1
O=C(Nc1ncn[nH]1)c1cc(S(=O)(=O)Nc2ccc(Cl)cc2)ccc1Cl	8
CCOC(=O)c1[nH]c(C)c(CN(C(C)=O)c2ccc(OCC)cc2)c1C	20
Cc1ccc(Cl)c(OCCN2CCCC(C)C2)c1 (stereo unspecified)	11
NCc1ccc2[nH]c(=O)[nH]c2c1	8
COc1ccc(/C=N/N2CCN(C)CC2)c(OC)c1OC	15
CC1(C)CC(=O)C(C=NCCN2CCN(CC(=O)Nc3ccc(F)cc3)CC2)=C(O)C1	18
O=C(Nc1cccc(S(=O)(=O)NC2=NCCCCC2)c1)c1cc(-c2ccccc2Cl)nc2ccccc12	8
Cc1c(Cl)cccc1Nc1nc(N)nc(CSc2nc3ccccc3s2)n1	20

Ordered by SMILES length (low to high): part of the list above.
SMILES	Calb biofilm kill
NCc1ccc2[nH]c(=O)[nH]c2c1	8
Cc1ccccc1Cn1cnc2ccccc2c1=O	0
Fc1ccc2[nH]c3c(Cl)ncnc3c2c1	22
C/C(=N/NC(=O)c1cnccn1)c1ccncc1	13
COc1ccc(/C=N/N2CCN(C)CC2)c(OC)c1OC	15
COc1ccc2c(c1)-c1nc(/N=C/c3ccc(O)cc3)sc1CC2	12
COC(=O)c1c(C)oc(C)c1S(=O)(=O)NCc1ccc(OC)cc1	22
O=C(COC(=O)CCc1nc2ccccc2s1)Nc1nc(-c2ccccc2)cs1	9
CCOC(=O)c1[nH]c(C)c(CN(C(C)=O)c2ccc(OCC)cc2)c1C	20
COCCSc1nnc(NC(=O)c2cc(OC)c(OC)cc2[N+](=O)[O-])s1	8
CN(c1ccccc1)S(=O)(=O)c1cccc(NC(=O)CSc2ncn[nH]2)c1	9
CCN1CCN(C(c2ccc(OC)cc2)c2nnnn2Cc2ccc3c(c2)OCO3)CC1 (stereo unspecified)	16
CC1(C)CC(=O)C(C=NCCN2CCN(CC(=O)Nc3ccc(F)cc3)CC2)=C(O)C1	18
Cc1ccc2cc(CCNC(=O)c3ccc(C)c([N+](=O)[O-])c3)c(=O)[nH]c2c1	7
O=C(Nc1ccc(N2CCOCC2)c(S(=O)(=O)Nc2cc(Cl)ccc2Cl)c1)c1cccnc1	9
Cc1cccc(N(C(=O)CCC(=O)Nc2cccnc2)C(C(=O)NC2CCCC2)c2ccncc2)c1 (stereo unspecified)	6
O=C(Nc1cccc(S(=O)(=O)NC2=NCCCCC2)c1)c1cc(-c2ccccc2Cl)nc2ccccc12	8
COC(=O)[C@@]1(Cc2ccc(F)cc2)[C@H]2c3cc(C(=O)N(C)C)n(CCc4ccccn4)c3C[C@H]2CN1C(=O)c1ccccc1	15

The list goes on.
SMILES	Calb biofilm kill
Cc1cc(=O)c(C(=O)O)nn1-c1ccccc1	4
Nc1nonc1-n1nnc(C(=O)N/N=C/c2cccnc2)c1CSC1=NCCS1	34
Cc1ccc(NC(=O)c2[nH]cnc2C(=O)NN)cc1	-2
COc1cc(C(=O)N[C@@H](C)C(=O)NCc2ccco2)cc(OC)c1OC	14
O=C(Nc1cccc(S(=O)(=O)Nc2ccccc2Cl)c1)c1ccc(N2CCCC2)c([N+](=O)[O-])c1	9
C/C(=N\NC(=O)COc1ccc(C(C)(C)C)cc1)c1ccc(N2CCOCC2)cc1	12
COc1cccc(CN2CCN(Cc3ccon3)CC2CCO)c1 (stereo unspecified)	12
COC(=O)c1cccc(Oc2cccc(C(F)(F)F)c2)n1	18
O=C(O)c1ccc(O)c(O)c1	29
CC(NC(=S)Nc1ccccc1)C1COc2ccccc2O1 (stereo unspecified)	21
S=C(NCc1ccc(Cl)cc1Cl)NC1CCCCC1	10
COc1ccc(/C=C2/C(=O)OCc3cc(OC)c(OC)cc32)c(OC)c1	6
O=C(O)c1cccc(N=NN2CCCCCC2)c1	13
COc1cc(C(=S)N2CCOCC2)ccc1OS(=O)(=O)c1ccc(NC(C)=O)cc1	14
O=C(COC(=O)CNS(=O)(=O)c1ccc2ccccc2c1)Nc1ccc2c(c1)OCO2	22
O=C(O)c1ccnc(SCC(=O)c2ccccc2)c1	13
CN(C)S(=O)(=O)c1cccc(NC(=O)COC(=O)C2(c3ccccc3F)CCCC2)c1	-12
CC1CCN(CC(=O)Nc2ccc(S(=O)(=O)NC3CC3)cc2)CC1	18
COc1ccc(OC)c(S(=O)(=O)N2CCNCC2)c1	17
O=C(/C=C/c1ccccc1[N+](=O)[O-])NCc1ccncc1	6
Cc1ccc(S(=O)(=O)N2CCC(=O)N(C(CO)Cc3ccccc3)CC2)cc1 (stereo unspecified)	20
CCOc1ccc(CCNC(=O)Cn2cccc2C(=O)c2ccccc2)cc1OCC	16
COc1ccc(C(=O)N2CCOCC2)cc1S(=O)(=O)N1CCCc2ccccc21	8
O=C1c2ccccc2C(=O)N1CSc1nnc(Nc2ccccc2)s1	1
NC(=O)Cn1nnc(-c2ccc(CN3CCCCC3)cc2)n1	8

Reformatted with bars between the fields: entries from further up.
SMILES | Calb biofilm kill
Cc1cc(=O)c(C(=O)O)nn1-c1ccccc1 | 4
Nc1nonc1-n1nnc(C(=O)N/N=C/c2cccnc2)c1CSC1=NCCS1 | 34

Next part.
SMILES	Calb biofilm kill
CN1CCN(NC(=S)NC2CCCCC2)CC1	15
CC(c1ccccc1)C1CC(=O)N(c2cc(Cl)ccn2)C1=O (stereo unspecified)	18
COC(=O)CCCCNC(=O)Nc1ccccc1	5
COc1ccc(NC(=O)Cc2c(SC)c3ccccc3n2Cc2ccccc2)cc1	6
S=C(c1ccc(-c2ccc(Br)cc2)o1)N1CCOCC1	8
COc1ccccc1NC(=O)c1ccc(NS(=O)(=O)c2cccc3cccnc23)cc1	19
Clc1ccc(CSc2ccc(-c3ccccn3)nn2)cc1	6
CN(C)S(=O)(=O)NCCNC(=O)c1cc(OCC(F)(F)F)ccc1OCC(F)(F)F	6
Cn1c(NNC(=O)c2ccc(C(C)(C)C)cc2)cc(=O)n(C)c1=O	17
CC(C)(C)c1nnc(NC(=O)C2c3ccccc3Oc3ccccc32)s1	16
Cc1ccc(NC(=O)CN2CCc3ccccc3C2)cc1S(=O)(=O)N(C)C	3
COC(=O)c1ccc(C(=O)OC)c(NC(=O)CN2CCCCC2)c1	12
C/C(=N\NC(=O)c1ccc(N(C)C)cc1)c1ccc(C)c(C)c1	18
COc1ccc(CNC(=O)C(=O)NCc2cccnc2)cc1	15
Cc1ccc2cccc(Oc3ncnc4sc(C)c(C)c34)c2n1	13
COc1ccc(CN(CC2CCC(C(=O)O)CC2)C(=S)Nc2cc(C)ccc2C)cc1 (stereo unspecified)	19
COc1cccc(CNC(=O)CCC2CCCN(C(=O)C3CCOCC3)C2)c1 (stereo unspecified)	5
Cc1ccc(NCC(=O)N/N=C/c2c[nH]c3ccccc23)cc1	5
Cc1cccc(NS(=O)(=O)c2cc([N+](=O)[O-])ccc2C)n1	9
CCCCCCCCCCCCCCCC(=O)NCCc1c[nH]c2ccccc12	13
COc1ccc(OC)c(C2CC(=O)Nc3n[nH]c(-c4ccccc4)c32)c1 (stereo unspecified)	15
Cc1cccc(NC(=O)CCC(=O)N/N=C/c2ccco2)c1	14
CCOC(=O)c1c(/N=C/N(C)C)sc(/C=N/Nc2ccccc2)c1-c1ccccc1Cl	13
O=C(N/N=C/c1ccc(Sc2nc3ccccc3[nH]2)o1)c1ccncc1	9
NNc1nc(C(F)(F)F)nc2ccccc12	6
Other structures.
SMILES	Calb biofilm kill
CS(=O)(=O)c1ccccc1-c1nc(-c2ccc([N+](=O)[O-])cc2)no1	22
CCOc1ccc(N2C(=O)C3=C(C(c4ccc(Cl)cc4)=NCCN3)C2c2cccnc2)cc1 (stereo unspecified)	10
Cc1ccc(-c2nnnn2-c2ccc(C)cc2)cc1	12
Cc1ccc(Nc2nc3ccccc3nc2Nc2c(C)n(C)n(-c3ccccc3)c2=O)cc1	9
O=[N+]([O-])c1cccc(Nc2c3ccccc3nc3ccccc23)c1	11
COc1cc(-c2[nH]ncc2CN2CCN(c3cccc(C)n3)CC2)cc(OC)c1OC	28
O=C(/C=C/c1ccc([N+](=O)[O-])s1)N1CCCCC1	10
O=C(O)c1ccc(N2C(=O)/C(=C/c3ccc(-c4ccc([N+](=O)[O-])cc4)o3)C=C2c2ccccc2)cc1	21
CC1C(=O)Nc2ccccc2N1C(=O)c1ccccc1 (stereo unspecified)	22
Cc1cccc(C)c1NC(=O)CSc1nnc(C)n1-c1ccccc1	14
C/C(CC(=O)Nc1ccc2c(c1)OCO2)=N\NC(=O)C(c1ccccc1)c1ccccc1	5
Cc1nnc(-c2ccc(Oc3ccc(C)c(C)c3)c([N+](=O)[O-])c2)o1	-12
CN(c1ccccc1)c1ccc(/C=C/[N+](=O)[O-])cc1	10
CSc1ccccc1NC(=O)NCCCl	15
CN(C)C(=O)COC(=O)c1ccc(S(=O)(=O)NCc2ccco2)cc1	19
CC(=O)c1cc(N2CCOCC2)ccc1[N+](=O)[O-]	-1
CN1C(=O)c2ccccc2Sc2ccc(NC(=O)N3CCOCC3)cc21	18
COc1cccc2c(=O)c3ccoc3n(C)c12	20
O=C1c2cccnc2C(Nc2ccc(Br)cc2)N1Cc1cccs1 (stereo unspecified)	8
COc1ccc(-n2c(CNC(=O)c3cccs3)n[nH]c2=S)cc1	13
O=C(COc1ncnc2c1cnn2-c1ccccc1)Nc1ccc(S(=O)(=O)N2CCCCC2)cc1	8
Cc1ccc(/C=C/C(=O)N2CCN(c3cccc(C(F)(F)F)c3)CC2)cc1	11
C/C(CC(=O)Nc1ccc(Br)cc1)=N\NC(=O)Cc1csc(N)n1	2
CC(=O)Nc1ccc(OCC(=O)NC(C)c2ccc(F)cc2)cc1 (stereo unspecified)	20
Cc1ccnc(NC(=O)Cn2cc([N+](=O)[O-])cn2)c1	13
CC1(C)CC1C(=O)Nc1ccc([N+](=O)[O-])cc1Br (stereo unspecified)	11
O=C(C1CC1)N1CCN(S(=O)(=O)c2ccc3c(c2)OCCO3)CC1	14

Screening results deposited in PubChem by PCMD.
